HSD17B inh – inhibitors of human HSD17B10 dehydrogenase; Q99714; recombinant HSD17B10, NADH fluorescence kinetic; many of its hits are not listed in these tables; Potency, µM (titrated, usually from 57.1 µM), inactives show at the highest dose activity change, negative = inhibition, hits mostly inhibitors; 7.6% of 75,000 active; active = well fitted inhibition curve with a large enough effect; inconclusive = small, poorly fitted or top-dose-only effect; inactive = no such curve, though single readings can be large or run the other way;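 also: the protocol describes HADH2 (HSD17B10) and not the HSD17B4 of the title; nearly all actives have a fitted effect of over 70% in size; most hits overshoot -100% by far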
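Enzyme plus compound, 15 min room temperature; substrate mix added (NAD+ 1 mM, beta-hydroxybutyryl-CoA 90 uM final); plates read kinetically for NADH fluorescence. HADH2 was His-tagged, E. coli-derived, 20 nM.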
Active calls of the source: *; ? = inconclusive; & = joins results of further samples; [ ] = dose if it differs, or a comment. % is scaled to controls: 0 for no effect and ±100 for the full control effect; potency is read from the fitted curve at half-maximal effect.

SMILES | HSD17B inh
COc1nnc(-c2ccc(N3CCOCC3)c(NC(C)=O)c2)c2ccccc12 | 10%
CCn1c(CCNC(=O)c2ccc(OC)c(OC)c2)nc2ccccc21 | 3%
CC(C)NC(=O)N1CC[C@@]2(CCCN(C(=O)c3csnn3)C2)C1 | 2%
COc1ccc(S(=O)(=O)N(C)CC(=O)N2CCC(C)CC2)cc1Cl | -2%
CC(C)C(=O)Nc1cccc2nsnc12 | -8%
CCOC(=O)N1CCC(N(C(=O)Nc2ccc(Cl)c(Cl)c2)C(C)CC)CC1 (stereo unspecified) | 1%
C=CCC(Nc1ccco1)c1ccccc1 (stereo unspecified) | ?
CCOC(=O)c1c(C)[nH]c(C(=O)Cn2c(=O)c3c(ncn3CC)n(Cc3ccccc3)c2=O)c1C | -11%
Cc1ccc(C(=O)N2CCN(c3ccccc3)CC2)cc1S(=O)(=O)N1CCCC1 | -11%
CC(C)C(=O)Nc1ccc(NC(=O)c2ccco2)cn1 | 0%
COc1cc(C2C3C(=O)N(Cc4ccccc4)C(=O)C3ON2c2ccccc2)cc(OC)c1O (stereo unspecified) | -15%
O=S(=O)(/N=S1/CC=CCN1S(=O)(=O)c1ccccc1)c1ccccc1 (stereo unspecified) | ?
Nc1nc2n(n1)C(c1ccco1)CC(c1ccc(F)cc1)N2 (stereo unspecified) | 1%
Nc1ccc(S(=O)(=O)O)cc1 | -19%
O=C(Nc1cccc(OCC(=O)N2CCOCC2)c1)C1CCCCC1 | 10%
CCc1ccc(S(=O)(=O)NCc2csc(C)n2)s1 | -3%
O=C(CCn1c(=O)[nH]c2ccsc2c1=O)N1CC(=O)N(CCc2ccccc2)C(=O)C1 | 5%
O=P(O)(c1ccc(Cl)cc1)c1ccc(Cl)cc1 | -4%
Cc1c(-c2nn(C)c(=O)c3ccccc23)oc2ccc(F)cc2c1=O | 7%
Oc1c(I)cc(Cl)c2cccnc12 | -6%
Cc1cc(C)cc(N2C(=O)C3CC=CCC3C2=O)c1 (stereo unspecified) | 4%
CCN1CCN(Cc2nc3c(c(=O)n(C)c(=O)n3C)n2Cc2ccc(Cl)cc2Cl)CC1 | -4%
COCCN1C(=O)c2oc3ccccc3c(=O)c2C1c1ccc(C(=O)OC)cc1 (stereo unspecified) | 1%
COc1ccc(OC)c(C2SCCN2S(=O)(=O)c2cccc(C(F)(F)F)c2)c1 (stereo unspecified) | -23%
CC(=O)Oc1ccc(-c2nc(-c3cccnc3)no2)cc1 | 5%
Cc1ccc(Cn2c(NCCCn3ccnc3)nc3c2c(=O)n(C)c(=O)n3C)cc1 | -15%
O=C(Nc1ccc2c(c1)oc1ccccc12)c1ccc(Br)o1 | -10%
N#Cc1c(NC(=O)CSc2nnc(-c3ccccc3O)n2-c2ccccc2)sc2c1CCCC2 | 54%[activator]
c1cc2c3c(c1)c1c(n3CCNC2)CCCC1 | 32µM*
COc1ccc(C(=O)NCc2nnc(SCC(=O)N3CCc4ccccc43)o2)cc1OC | 9%
CCC(=O)Oc1ccc(C2N(C(=O)CC)CCN2S(=O)(=O)c2ccc(C)cc2)cc1OC (stereo unspecified) | 5%
CC(=O)NC(=S)c1c(N)n(Cc2ccccc2)c(=O)n(C)c1=O | -4%
Cn1c(=O)[nH]c(=O)c2c1nc(Br)n2CC(O)COCc1ccccc1 (stereo unspecified) | 11%
CCOC(=O)c1ccoc1CSCC(=O)N1CCN(S(=O)(=O)c2ccc(C)cc2)CC1 | 1%
CCC(=O)c1cc(F)c(N2CCN(C(=O)c3ccco3)CC2)cc1C | -4%
CN(C)C[C@H]1CCC2=C(C1=O)C(c1ccc(Cl)c(Cl)c1)C1=C(CC[C@H](CN(C)C)C1=O)O2 | 0%[11.4 µM]
Cc1cc(C)n(-c2nc3c(c(=O)n(C)c(=O)n3C)n2C)n1 | 7%
Cc1oc(-c2ccccc2F)nc1CS(=O)(=O)CC(=O)N1CCc2ccccc21 | 2%
CC1CCN(C(=O)CSc2ccc3nnc(-c4ccccc4)n3n2)CC1 | ?
COc1ccccc1NC(=O)CSc1nnc(-c2ccc(C)cc2)o1 | 15%
O=C(Nc1ccc(S(=O)(=O)NCCc2ccccc2)cc1)c1ccco1 | -11%
O=C(CN(c1ccc(Cl)c(C(F)(F)F)c1)S(=O)(=O)c1ccccc1)N1CCOCC1 | -2%
Cc1ccc(S(=O)(=O)N2CCCCC2C(=O)N2CCN(Cc3ccccc3)CC2)cc1 (stereo unspecified) | -15%
Cn1nc(-c2ccc(Cl)cc2)c2cc(C(=O)N3CCOCC3)sc21 | -11%
COc1cccc(-n2nnc3c(=O)n(CC(=O)N4CCC(C)CC4)cnc32)c1 | -10%
O=C1CSC(=S)N1CC1CCCO1 (stereo unspecified) | 2%
CCn1c(CNc2ccc(F)cc2)nnc1SCC(=O)N1CCCc2ccccc21 | -7%
Cc1cc(C)cc(-n2nnc(C(=O)NCc3ccccc3)c2N)c1 | 2%
CCc1nnc(NC(=O)CSc2nnc(-c3cccnc3)n2CCc2ccccc2)s1 | -3%
Cn1c(=O)[nH]c(=O)c2c1nc(NC1CCCCC1)n2Cc1ccccc1 | 6%

Additional entries
SMILES | HSD17B inh
Cc1cccn2c(=O)c3cc(C(=O)N4CCN(c5ccccc5)CC4)n(C)c3nc12 | 7.9µM*
CCn1c(CSc2nnc3ccccn23)nc2cc(C(=O)O)ccc21 | 0%
O=C(NCCN1CCOCC1)c1ccc(Cl)c(S(=O)(=O)N2CCCCCC2)c1 | 8%
c1ccc(C[n+]2cccc(-c3cc4ccccc4[nH]3)c2)cc1 | 2%[11.4 µM]
C=CCOC(=O)/C=C/NC(=O)/C=C/C=C/CCCCCCCC(C)O (stereo unspecified) | 2%&0%[11.4 µM]
Cc1ccc(SCCNS(=O)(=O)c2ccc(F)cc2)cc1 | -15%
CCCS(=O)(=O)n1nc(-c2ccc(Br)cc2)cc1N | 0%
Cc1ccc(C)c(Oc2nnnn2-c2ccccc2)c1 | 8%
COc1ccc(C)cc1NC(=O)c1cnc2sccn2c1=O | 25µM*
NS(=O)(=O)c1ccc(NCc2nc3ccccc3[nH]2)cc1 | 0%[11.4 µM]
CN(C)c1nc(Oc2ccc(=O)n(-c3ccccc3)n2)nc(N2CCOCC2)n1 | 5%
Cc1cc(C(=O)CSCc2nnc3n(CCC(C)C)c(=O)c4ccccc4n23)c(C)n1C | -8%
Cc1nc2n(n1)C(c1ccccc1)C1=C(CC(c3ccco3)CC1=O)N2 (stereo unspecified) | ?
Cc1ccc(OCC(=O)Nc2ccc(-c3nc4ncccc4o3)cc2)c(C)c1 | 25µM*
CCOC(=O)c1c(C)c(C(=O)NCCOC)c(C)n1CC | 7%
CCOCC(=O)N1CCCC(C(=O)OCC)C1 (stereo unspecified) | 5%
Cc1ccc2cc(-c3noc(C(C)(C)C)n3)c(=O)[nH]c2c1 | 4µM*
CCOC(=O)N1CCN(C(=O)CSc2nnc(-c3cccc(OC)c3)o2)CC1 | -6%
CCOc1cc(C#N)c(NC(=O)Cn2nnc3ccccc32)cc1OCC | 0%
Cc1csc(SCc2nnc(-c3ccccc3Br)o2)n1 | -17%
O=C(CN1CCNCC1)Nc1ccccc1Cl | 4%
COc1ccccc1NC(=O)CSc1nnc(-c2ccoc2C)n1CCc1ccccc1 | -25%
COc1ccc(-c2ccc(C(=S)N3CCN(C(C)=O)CC3)o2)cc1 | 32µM*
CC(C)c1cccc2cc3c(nc12)-c1cccc(=O)n1C3 | 13µM*
COc1ccccc1-c1nnc2sc(-c3cc4ccccc4o3)nn12 | 16%
Cc1ccccc1Nc1nc(N)nc(CN(C)c2ccccc2)n1 | 4%
O=C(O)CCSCCC(=O)O | -3%
O=C(CSc1nc(-c2ccccc2)cc(C(F)(F)F)n1)NCCN1CCOCC1 | 3%
CCS(=O)(=O)N1CCN(C(=O)c2cccnc2)CC1 | 3%
CCCC(C(=O)c1ccccc1)n1cncn1 (stereo unspecified) | 4%
Cn1c(SCc2ccc(C#N)cc2Cl)nc2ccccc21 | -2%
CCn1c(=NC(=O)CSCC(=O)Nc2nccs2)sc2ccccc21 | 0%
COc1nc(Oc2ccc(=O)[nH]n2)nc(N2CCOCC2)n1 | -3%
Cc1ccc(S(=O)(=O)c2c(C)nn(C(C)(C)C)c2OC(=O)C2CCCC2)cc1 | 7%
COc1ccc(-n2nnnc2SCC#CCO)cc1 | 1%
Cc1ccccc1-n1c(=O)cc(N2CCN(Cc3ccccc3)CC2)[nH]c1=O | 4%
CCOC(=O)C1CCCN(c2c(NCC3CCCO3)c(=O)c2=O)C1 (stereo unspecified) | 0%
COc1ccc(CNc2ncnc3ccc(-c4ccoc4)cc23)c(OC)c1 | ?
Cc1ccc(C(=O)N2CCCCCC2)cc1Br | 1%
Cc1nnc(NC(=O)CSc2nnc(Cc3ccccc3)n2Cc2ccccc2)s1 | -4%
Cc1cc(C(=O)N2CCN(c3cccc(Cl)c3)CC2)c(C)o1 | -15%
COCCOC(=O)C1=C(C)NC(=O)CC1c1cc2c(cc1Br)OCO2 (stereo unspecified) | 2%
O=C1c2ccccc2CC1Sc1nnc(-c2ccncc2)o1 (stereo unspecified) | -26%
Clc1ccc(-c2nc3nc4ccccc4nc3n2Cc2ccco2)cc1 | ?
CN(C)S(=O)(=O)c1ccc(C(=O)Nc2nc(-c3cccs3)cs2)cc1 | ?
CC1=Nn2c(nnc2-c2cc(C)[nH]n2)SC1 | 11%
CC(C)(C)C(=O)Cn1c(NCCCO)nc2ccccc21 | 0%
COC(=O)CCn1nnc(-c2ccc(C)cc2)n1 | 17%
Cc1nc2c3cnn(-c4ccccc4)c3ncn2n1 | ?
Cc1nc2cncnc2n(Cc2ccccc2)c1=O | 2%

Copied from the list:
Cc1ccc(OCC(=O)Nc2ccc(-c3nc4ncccc4o3)cc2)c(C)c1 in HSD17B inh reads 25µM*
CC(C)C(=O)Nc1ccc(NC(=O)c2ccco2)cn1 in HSD17B inh reads 0%

(cont.)
structure | HSD17B inh
CC1CCN(S(=O)(=O)c2ccc3c(c2)c(=O)c(C(=O)N2CCCCC2)cn3C)CC1 | -4%
CS(=O)(=O)Nc1ccc(Cc2ccc(NS(C)(=O)=O)cc2)cc1 | -3%
CCCC(=O)Nc1ccc(NC(=O)c2ccccc2OC)cn1 | ?
O=C(COc1ncnc2ccccc12)N1CCN(S(=O)(=O)c2ccc(Cl)cc2)CC1 | 1%
O=C(CCn1c(=O)oc2ccccc21)N1CCOCC1 | 8%
O=C(CN1C(=O)C2C3C=CC(C3)C2C1=O)NCCN1CCCc2ccccc21 (stereo unspecified) | -1%
CCCCCCCCC/C=C/CC1CC(=O)OC1=O (stereo unspecified) | 0%
CC1=CCC2C(=O)N(c3ccc(Br)cc3C)C(=O)C2C1 (stereo unspecified) | 8%
CCOC(=O)CN1C(=O)C(C)(C)Oc2ccc(C(=O)Nc3ccccc3)cc21 | 2%
O=C(CCSc1nnc(-c2ccco2)o1)Nc1ccc(Cl)cc1 | 6%
COc1cc(OC)c(-c2nn3c(C4CCCCC4)nnc3s2)cc1OC | ?
Cc1ccc(N(C=NC#N)CC(=O)N2CCN(c3ccccc3)CC2)cc1 | 9%
CCN1CCN(C(=O)CN(c2ccccc2C)S(C)(=O)=O)CC1 | 3%
O=C(CSc1nc2cccnc2n1Cc1ccccc1)NCc1ccco1 | ?
Cc1cc(C)c(C#N)c(SCS(=O)Cc2ccccc2)n1 (stereo unspecified) | 3%
COc1ccc(OC)c(C2CC(=O)c3c([nH]c(C(=O)OC(C)C)c3C)C2)c1 (stereo unspecified) | 10%
O=C(NC1CCCCCC1)C1CCN(S(=O)(=O)c2ccc(F)cc2)CC1 | -5%
CCSc1oc(-c2ccccc2)nc1S(=O)(=O)c1ccccc1 | ?
O=C(NCCc1csc(-c2cccnc2)n1)c1ccco1 | -15%
CCOc1cc2[nH]c(=O)n(Cc3cccc(OC)c3)c(=O)c2cc1OCC | ?
CCOC(=O)c1nc2nc(C)cc(=O)n2[nH]1 | 2%
CCn1c(C2CC(=O)N(c3cc(C)cc(C)c3)C2)nc2ccccc21 (stereo unspecified) | 4%
COc1cnc(NS(=O)(=O)c2ccc(N)cc2)nc1 | 4%
CC(C)(CS)C(=O)N1CCC[C@H]1C(=O)O | -6%[25.6 µM]
Cc1ccc(C(N)=Nc2ccccc2)cc1 | 2%[11.4 µM]
CCn1cc(C2=NCC(C)O2)c2ccccc21 (stereo unspecified) | -11%
N[C@@H](Cn1cc(I)c(=O)n(Cc2ccc(C(=O)O)cc2)c1=O)C(=O)O | -14%
CCCn1c(SCC(=O)Nc2sc(C)c(C)c2C(=O)OCC)nc2c1c(=O)n(C)c(=O)n2C | -8%
C=Cc1cccc(C)c1 | 2%
Cc1ccc(P(=O)(O)c2ccc(C)cc2)cc1 | 5%
CCCCCc1c(C)nc(Nc2nc(C)c3cc(OC)ccc3n2)[nH]c1=O | 4%
O=C(COC(=O)c1cccs1)Nc1ccccc1 | 4%
COc1ccc(-c2c(C)oc3c(CN4CCN(CCO)CC4)c(O)ccc3c2=O)cc1OC | 25µM*

Nothing new here: 7 of the compounds above.
structure | HSD17B inh
COc1cnc(NS(=O)(=O)c2ccc(N)cc2)nc1 | 4%
CC(C)(CS)C(=O)N1CCC[C@H]1C(=O)O | -6%[25.6 µM]
Cc1ccc(C(N)=Nc2ccccc2)cc1 | 2%[11.4 µM]
CCn1cc(C2=NCC(C)O2)c2ccccc21 (stereo unspecified) | -11%
N[C@@H](Cn1cc(I)c(=O)n(Cc2ccc(C(=O)O)cc2)c1=O)C(=O)O | -14%
CCCn1c(SCC(=O)Nc2sc(C)c(C)c2C(=O)OCC)nc2c1c(=O)n(C)c(=O)n2C | -8%
C=Cc1cccc(C)c1 | 2%

Not all compounds are listed; the hit share may differ from the screen's.
